# Screens deposited in PubChem BioAssay by ICCB-Longwood Screening Facility, Harvard Medical School.
# Mtb MenB inh – M. tuberculosis MenB inhibitors, primary screen, biochemical, absorbance; 1,4-dihydroxy-2-naphthoyl-CoA synthase (Mycobacterium tuberculosis (strain ATCC 25618 / …; MenB enzyme assay, absorbance read-out; some hits fall short of the stated cut; inhibition, %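 (about 12 µg/mL by stock and volumes)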; 100,000 compounds, 0.43% hits; AID 540299, 2011;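 active means mean of two replicates above 30%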;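 further: 0% = no compound and 100% = wells with inactive enzyme; the first replicate is given; strong numbers were not always called active; inactives centre near -10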
# Target sequence (P9WNP5 whole entry, looked up): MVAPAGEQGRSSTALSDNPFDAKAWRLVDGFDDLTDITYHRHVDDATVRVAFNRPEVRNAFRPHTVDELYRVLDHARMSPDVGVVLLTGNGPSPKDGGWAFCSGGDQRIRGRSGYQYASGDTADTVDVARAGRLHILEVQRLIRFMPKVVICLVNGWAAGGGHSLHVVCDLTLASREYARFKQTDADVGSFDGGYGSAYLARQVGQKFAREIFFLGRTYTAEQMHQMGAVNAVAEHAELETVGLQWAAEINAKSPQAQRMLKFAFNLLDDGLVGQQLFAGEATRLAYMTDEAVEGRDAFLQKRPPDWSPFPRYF
# Mtb MbtI inh – MbtI salicylate synthase inhibitors, primary screen, biochemical, fluorescence intensity. purified MbtI enzyme, fluorescence intensity read-out. 100,000 compounds, 0.89% hits. P9WFX0. inhibition, %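 (about 17 µg/mL by stock and volumes)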;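 active means above 50% in both replicates, above 80% if mildly self-fluorescent; inactive means the rest, strongly fluorescent compounds included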;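 further: 0% = mean of negative and 100% = mean of positive controls; one replicate is shown; some compounds called inactive have numbers as strong as hits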
# Polio RdRp inh – poliovirus RdRp elongation inhibitors, primary screen, biochemical, fluorescence polarization, total intensity. % elongation, % (compound at 16.7 µg/mL). AID 588519, 2011. 150,000 compounds, 0.66% hits. poliovirus polymerase elongation; active compounds read low. Genome polyprotein (Poliovirus type 1 (strain Mahoney)), P03300; in the data active means % elongation below about 90%; further: some results filed as inactive read as strong as hits
# Target sequence (P03300 1749-2209 limits assumed): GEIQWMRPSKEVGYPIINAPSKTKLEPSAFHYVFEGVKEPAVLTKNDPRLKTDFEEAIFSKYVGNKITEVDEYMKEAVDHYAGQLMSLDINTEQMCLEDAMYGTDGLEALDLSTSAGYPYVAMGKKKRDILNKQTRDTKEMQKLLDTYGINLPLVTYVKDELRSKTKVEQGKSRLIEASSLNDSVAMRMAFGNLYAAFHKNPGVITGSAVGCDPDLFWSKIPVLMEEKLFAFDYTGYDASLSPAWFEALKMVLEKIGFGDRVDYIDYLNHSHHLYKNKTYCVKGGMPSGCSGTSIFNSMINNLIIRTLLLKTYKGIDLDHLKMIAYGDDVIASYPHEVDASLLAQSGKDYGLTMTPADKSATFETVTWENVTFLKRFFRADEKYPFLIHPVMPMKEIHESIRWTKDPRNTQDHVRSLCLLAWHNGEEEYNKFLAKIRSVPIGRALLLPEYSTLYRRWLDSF
# Polio RdRp inh intensity – also measured in Polio RdRp inh; calls as there; % elongation; measured here: total intensity read-out; formula for this scale not given here;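 total fluorescence in place of polarization; lower means less elongation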
# * marks the source's active call; other numbers are inactive results; . = no result given. Rows were taken by chance, and some 1.8% of all compounds hit somewhere here.
# Order of values: Mtb MenB inh | Mtb MbtI inh | Polio RdRp inh | Polio RdRp inh intensity
- Cc1cc(OCCN2CCOCC2)nc(N2CCOCC2)n1
 : -18 | 30 | 103 | 99
- CCOC(=O)c1cc(-c2ccc(S(=O)(=O)NC3CC3)s2)on1
 : -17 | -8 | 101 | 103
- CCOC(=O)c1ccsc1NC(=O)/C=C/c1cccs1
 : -16 | 9 | 103 | 102
- O=C(CCS(=O)(=O)c1ccc2c(c1)CCN2C(=O)C1CC1)NCc1ccccc1
 : -4 | -16 | 102 | 103
- COc1cc(-c2nc3ccccc3[nH]2)cc(OC)c1OC
 : 10 | 117 | 104 | 101
- O=C(NC1CC1)c1ccc2c(c1)N(Cc1ccccc1)C(=O)c1ccccc1S2=O (stereo not drawn)
 : -6 | 11 | 101 | 100
- COc1cccc(/C=N/n2c(-c3ccco3)csc2=NC2CCCCC2)c1O
 : -72 | 9 | 97 | 98
- O=C(NC1CC1)C1CCCN1S(=O)(=O)c1ccccc1 (stereo not drawn)
 : -6 | -3 | 102 | 104
- c1ccc(OCCOc2ccccc2-c2nnco2)cc1
 : -14 | 7 | 102 | 100
- CC1(C)CC(=O)C(C2(O)C(=O)N(CN3CCOCC3)c3ccccc32)CO1 (stereo not drawn)
 : 7 | 6 | 103 | 104
- OCCN=C(c1ccc(Cl)cc1)N1CCN(C(=NCCO)c2ccc(Cl)cc2)CC1
 : -13 | . | 104 | 114
- CC1=CC2(O)OCCN(Cc3ccccc3)C2=CC1=O (stereo not drawn)
 : -7 | 21 | 101 | 101
- NC(=O)C1CCN(c2nccc(C(F)(F)F)n2)CC1
 : 0 | 2 | 104 | 98
- CN(C)S(=O)(=O)N1CCNCC1
 : 4 | 0 | 101 | 103
- O=C(O)CSCC(=O)c1c[nH]c2ccccc12
 : -17 | 11 | 105 | 103

# Brought forward from above: 4 entries; new compounds follow.
# Order of values: Mtb MenB inh | Mtb MbtI inh | Polio RdRp inh | Polio RdRp inh intensity
- CC1=CC2(O)OCCN(Cc3ccccc3)C2=CC1=O (stereo not drawn)
 : -7 | 21 | 101 | 101
- NC(=O)C1CCN(c2nccc(C(F)(F)F)n2)CC1
 : 0 | 2 | 104 | 98
- CN(C)S(=O)(=O)N1CCNCC1
 : 4 | 0 | 101 | 103
- O=C(O)CSCC(=O)c1c[nH]c2ccccc12
 : -17 | 11 | 105 | 103
- COC(=O)c1ccc(CSc2cc(C)c3ccccc3n2)o1
 : -41 | 36 | 107 | 110
- COc1ccc(C2C(=O)N(C3CCCC3)CC(=O)N2Cc2cccs2)cc1 (stereo not drawn)
 : -11 | 0 | 100 | 100
- CCn1nnc2cc(C(=O)OCC(=O)Nc3cc(OC)cc(OC)c3)ccc21
 : 2 | 2 | . | .
- O=c1c2ccccc2ncn1Cc1ccc(F)cc1
 : -22 | . | 107 | 108
- O=C1Nc2ccccc2/C1=C/C(=O)c1ccc(Cl)cc1
 : -36 | . | 103 | 95
- Cn1c(=O)n(C)c2cc(S(=O)(=O)N3CCCC3)ccc21
 : -1 | -4 | 102 | 103
- O=c1c(-c2ccc(Oc3ccccc3)cc2)[n+]([O-])c2ccccc2n1O
 : -97 | -20 | 98 | 106
- CC1CCCN(S(=O)(=O)c2ccc(S(=O)(=O)N(Cc3cccs3)Cc3cccs3)cc2)C1 (stereo not drawn)
 : 25 | -3 | 104 | 101
- Cn1nnc2cc(C(=O)N3CCSCC3)ccc21
 : -21 | -2 | 100 | 103
- Cc1nn(-c2ccccc2)nc1C(=O)N1CCN(S(=O)(=O)c2ccc3c(c2)OCCCO3)CC1
 : -28 | -12 | 104 | 105
- O=C(CCS(=O)(=O)c1nc(-c2ccc3c(c2)OCO3)cc(C(F)(F)F)n1)ON=C1CCCCC1
 : 12 | -7 | 101 | 105
- CCc1ccc(NC(=O)N2CCn3c(C)ccc3C2CC)cc1 (stereo not drawn)
 : -16 | 7 | 105 | 105
- CC(C)(C)NC(=O)COc1ccc(CNC2C3CC4CC(C3)CC2C4)cc1 (stereo not drawn)
 : -4 | -5 | 101 | 105
- COc1cc(-c2nc3cc(OC(C)=O)ccc3c(=O)o2)cc(OC)c1OC
 : -5 | 66 | 102 | 104
- CCOC(=O)/C(C#N)=C/Nc1ccn(C)n1
 : -3 | 18 | 102 | 103

# Other results follow.
# Order of values: Mtb MenB inh | Mtb MbtI inh | Polio RdRp inh | Polio RdRp inh intensity
- N#C/C(=C\c1ccc(SCc2ccc(Cl)cc2)o1)C(=O)NCc1ccco1
 : -128 | 2 | 108 | 117
- CCN(CC)S(=O)(=O)c1cc(C(=O)NCCc2ccc(Cl)cc2)ccc1F
 : . | -3 | 100 | 106
- Cc1ccccc1CSCc1ccc(C(=O)N2CCNc3ccccc3C2)o1
 : -27 | -1 | 103 | 104
- COc1ccc(CNc2nonc2C)cc1
 : -4 | -8 | 102 | 101
- O=C(Nc1cc(OCC(F)(F)F)cc(OCC(F)(F)C(F)F)c1)c1ccco1
 : 3 | -5 | 100 | 105
- O=C(O)c1cc2ccccc2c(=O)s1
 : -10 | 7 | 101 | 99
- CC(/C(O)=C(\C#N)c1nc2ccccc2[nH]1)N1C(=O)c2ccccc2C1=O (stereo not drawn)
 : 2 | 0 | 105 | 103
- O=C(Cn1ncc(Cl)c(Cl)c1=O)N1CCN(Cc2ccccc2)CC1
 : -35 | 10 | 98 | 100
- CCOc1cc(CNn2cnnc2)ccc1OCC(=O)NC1CCCCC1
 : -1 | 34 | 99 | 102
- Cc1csc(C(C#N)C(=O)CSc2nnnn2C2CCCC2)n1 (stereo not drawn)
 : -4 | 9 | 100 | 112
- CCc1[nH]nc2c1C(c1ccc(F)c(Oc3ccccc3)c1)C(C#N)=C(N)O2 (stereo not drawn)
 : -22 | -3 | 101 | 102
- Cc1ccc(-c2nc3ncccn3c2NC(=O)C2CC2)cc1
 : -7 | 108 | 104 | 102
- O=C(O)CC1OC(=O)c2ccccc21 (stereo not drawn)
 : -65 | 7 | 102 | 100
- Cc1nc(COc2ccc(C(C)(C)C)cc2)[nH]c(=O)c1Cl
 : -17 | 15 | 105 | 99
- CCN1C(=O)C2C(c3ccc(O)cc3)NC(CO)(C(=O)OC)C2C1=O (stereo not drawn)
 : -19 | -3 | 102 | 104

# The last 5 records of the part above come first, to join the parts.
# Order of values: Mtb MenB inh | Mtb MbtI inh | Polio RdRp inh | Polio RdRp inh intensity
- CCc1[nH]nc2c1C(c1ccc(F)c(Oc3ccccc3)c1)C(C#N)=C(N)O2 (stereo not drawn)
 : -22 | -3 | 101 | 102
- Cc1ccc(-c2nc3ncccn3c2NC(=O)C2CC2)cc1
 : -7 | 108 | 104 | 102
- O=C(O)CC1OC(=O)c2ccccc21 (stereo not drawn)
 : -65 | 7 | 102 | 100
- Cc1nc(COc2ccc(C(C)(C)C)cc2)[nH]c(=O)c1Cl
 : -17 | 15 | 105 | 99
- CCN1C(=O)C2C(c3ccc(O)cc3)NC(CO)(C(=O)OC)C2C1=O (stereo not drawn)
 : -19 | -3 | 102 | 104
- O=C(NC(Nc1ccccc1C(F)(F)F)C(=O)c1ccccc1)c1ccco1 (stereo not drawn)
 : -2 | . | 105 | 114
- O=C1CC(CSc2ccc(Cl)cc2)=NN1c1nc2ccccc2s1
 : -50 | -6 | 103 | 108
- O=C(NCCO)c1nnc(-c2cccc(Cl)c2)o1
 : 0 | -8 | 102 | 110
- Cn1c(=O)c2c(nc(CN3CCN(C(=O)c4ccco4)CC3)n2Cc2ccccc2F)n(C)c1=O
 : -8 | -3 | 102 | 100
- CC1CC(=O)C2=C(OC(N)=C(C#N)C2c2ccccc2C(F)(F)F)O1 (stereo not drawn)
 : -4 | . | 101 | 112
- O=C(Cn1cnc2ccccc21)N/N=C1/CCSc2ccc(F)cc21
 : -27 | 5 | 105 | 99
- COc1cc(S(=O)(=O)Nc2ccccc2NC(=O)CN2CCOCC2)c(OC)cc1NC(C)=O
 : -47 | 0 | 104 | 102
- CSc1ncc(Cl)c(C(=O)Nc2c(C(=O)Nc3ccc(C)cc3)oc3ccccc23)n1
 : 22 | 2 | 100 | 98
- O=C(Oc1c(-c2ccccc2)c(=O)n2c3c(cccc13)CC2)c1ccccc1
 : -9 | -32 | 102 | 104
- S=C(Nc1cccnc1)N1CCc2ccccc21
 : -6 | . | 107 | 109
- CCOC(=O)C1CCN(C=Nc2cc(C)on2)CC1
 : 12 | 13 | 102 | 100
- CCn1c(O)c(C=Nc2ccc(C)cc2)c(=O)n(CC)c1=S
 : -3 | -8 | . | .
- Cc1ccccc1C(OCC(O)CN(C)C1CCN(C)CC1)c1ccccc1 (stereo not drawn)
 : -32 | -6 | 99 | 86
- CCc1cccc(NC(=O)Cn2cc(S(=O)(=O)N3CCCC3)c(S(=O)(=O)N3CCCC3)c2)c1
 : 10 | -8 | 102 | 102
- C/C(=N/n1cnnc1)c1ccccc1
 : . | -8 | 101 | 105

# The listing continues.
# Order of values: Mtb MenB inh | Mtb MbtI inh | Polio RdRp inh | Polio RdRp inh intensity
- CCC1CCCCN1C(=O)CSc1nc2c(c(=O)n1C)SC(C)C2 (stereo not drawn)
 : 3 | 1 | 100 | 102
- Cc1cccc(NS(=O)(=O)c2ccc3c(c2)oc(=O)n3C)c1
 : -10 | -3 | 104 | 109
- N#Cc1c[nH]n2c(=O)cc(Cc3ccccc3)nc12
 : -61 | 88 | 94 | 113
- Nc1c(Cl)ncnc1NCCO
 : -36 | 3 | 99 | 105
- CC(C)(C)c1ccc(-c2ncon2)cc1Cn1nnc(-c2cccc(C(F)(F)F)c2)n1
 : -15 | -2 | 100 | 93
- N#Cc1ccsc1NC(=O)CSc1nnc(NC2CC2)s1
 : 2 | 6 | 106 | 110
- Cc1ccc(NC(=O)CC(C)CC(=O)O)cc1 (stereo not drawn)
 : 8 | -5 | 104 | 105
- CC(C)CNC(=S)NCc1ccco1
 : -21 | 17 | 104 | 106
- O=C(OCc1cc(=O)oc2cc3c(cc12)CCC3)c1ccc(-n2cnnn2)cc1
 : -6 | 52 | 101 | 108
- Cc1[nH]c2ccccc2c1C(=O)CN(C)C1CCCCC1
 : 12 | 7 | 100 | 102
- Cc1ccc(-n2nc(C)c3c(C)cc(=O)[nH]c32)cc1
 : -17 | 132 | 100 | 101
- CCOC(=O)c1c(-c2cccs2)csc1NC(=O)CSc1ccccn1
 : -27 | 11 | 110 | 122
- O=C(NCCc1ccccc1)c1cnn(-c2ccccc2)c1-n1cccc1
 : -17 | -8 | 99 | 98
- Cc1nc(SCC(=O)N2CCCC2c2ccc3c(c2)OCCCO3)c(C#N)c(C)c1C (stereo not drawn)
 : -35 | 10 | 103 | 106
- COc1ccc(OCC(O)CNC(=O)c2cc(C(C)(C)C)nn2C)cc1 (stereo not drawn)
 : -14 | -9 | 105 | 109

# The closing 2 compounds of the part before come first, to join the parts.
# Order of values: Mtb MenB inh | Mtb MbtI inh | Polio RdRp inh | Polio RdRp inh intensity
- Cc1nc(SCC(=O)N2CCCC2c2ccc3c(c2)OCCCO3)c(C#N)c(C)c1C (stereo not drawn)
 : -35 | 10 | 103 | 106
- COc1ccc(OCC(O)CNC(=O)c2cc(C(C)(C)C)nn2C)cc1 (stereo not drawn)
 : -14 | -9 | 105 | 109
- COc1ccc(C(=O)N2CC(=O)Nc3ccccc32)cc1S(=O)(=O)NCc1ccncc1
 : -18 | -9 | 93 | 96
- O=C(CN(Cc1ccco1)C(=O)Cc1ccccc1F)Nc1ccccc1C(F)(F)F
 : 16 | 4 | 104 | 95
- O=C(Nc1ccccc1)c1ccc2c(c1)C(=O)N(CCC1=CCCCC1)C2=O
 : -21 | -5 | 105 | 105
- O=C(COc1ccc(Cl)cc1)n1nnc2ccccc21
 : 3 | -17 | 98 | 103
- CCC(CC)c1nnc(N)s1
 : . | -5 | 104 | 108

# As entered above.
# COc1cccc(/C=N/n2c(-c3ccco3)csc2=NC2CCCCC2)c1O in Polio RdRp inh is entered as 97
# O=C(CCS(=O)(=O)c1nc(-c2ccc3c(c2)OCO3)cc(C(F)(F)F)n1)ON=C1CCCCC1 in Polio RdRp inh intensity is entered as 105
# Cc1[nH]c2ccccc2c1C(=O)CN(C)C1CCCCC1 in Mtb MenB inh is entered as 12
# CCn1nnc2cc(C(=O)OCC(=O)Nc3cc(OC)cc(OC)c3)ccc21 in Mtb MbtI inh is entered as 2
# Cc1ccc(-c2nc3ncccn3c2NC(=O)C2CC2)cc1 in Mtb MbtI inh is entered as 108
